PrP UTR inh – inhibition of PrP 5' UTR reporter expression. inhibition, % (no concentration beside the values). AID 488862. cell-based PrP 5' UTR mRNA reporter, plate reader. 340,000 compounds, 0.35% hits;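 active = every replicate at 50% or more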;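 also: 0 = median of the neutral control wells; tested in H4 reporter cells; numbers are from one replicate; inactives centre near -14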
Bead autofluor – compound fluorescence in toxin protease inhibitor counterscreen; compound autofluorescence counterscreen, microsphere flow cytometry; active compounds read high; AID 624483; fluorescence intensity (no concentration beside the values); 360,000 compounds, 3.1% hits;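 active = at least 3 SD above the mean of all compounds, about 16000 in these data; inconclusive = too few beads counted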;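 also: 100 nL of 1 mM stock went into each well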
Mtb hypoxia rep – reduces hypoxia-regulated biosensor signal in M. tuberculosis; M. tuberculosis hypoxia-regulated fluorescent reporter, fluorescence; fluorescence inhibition, % (no concentration beside the values); 300,000 compounds, 0.1% hits; AID 1159583;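 active = 35 to 45% if threefold the growth effect, above 45% if 1.5-fold the growth effect; inactive = the rest, general growth blockers included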;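 also: wells of about 50 µL received 100 nL stock; 0% = vehicle wells and 100% = reference inhibitor wells; whole bacteria with a GFP reporter of the hypoxia response; strong numbers were not always called active; many hits fall short of the cut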
Sa ugtP lethal – compounds lethal to S. aureus RN4220 ugtP deletion mutant; OD600 growth, 16 h; some inactives read as strong as hits; growth inhibition, % (concentration not given with the values); 330,000 compounds, 0.54% hits;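 active = z-score under -3 and OD600 up to 0.15 on both plates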;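 also: plate controls were untreated wells for no effect and antibiotic for full effect; wells of about 80 µL received 100 nL stock; the first replicate is given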
Sa RN4220 lethal – S. aureus RN4220 growth inhibition. OD600, 16 h. 330,000 compounds, 0.33% hits. inhibition, % (test concentration not listed);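 active = z-score of -3 or lower and OD600 up to 0.18 on both plates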;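 also: plate controls were untreated cells for no effect and reference antibiotic for full effect; stock transfer was 100 nL into about 80 µL; one replicate is shown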
BJeLR viability – kills HRASV12-expressing BJeLR cells; inhibition, % (test concentration not listed); 300,000 compounds, 0.17% hits; BJeLR (HRASV12) viability, CellTiter-Glo ATP luminescence, 48 h; reference of the scale not given here;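 active = replicate mean above 50%; inconclusive = above 50% but judged a plate artefact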;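 also: 50 nL library stock added to about 25 µL; numbers are from one replicate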
Mtb hypoxia rep growth – recorded beside Mtb hypoxia rep, whose call it bears; growth inhibition, %; measured here: M. tuberculosis growth (absorbance);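 0% = vehicle and 100% = reference antibiotic; read after six days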
An asterisk follows results filed as active; ? = inconclusive; . = no result given; & = joins results of further samples.

SMILES	PrP UTR inh	Bead autofluor	Mtb hypoxia rep	Mtb hypoxia rep growth	Sa ugtP lethal	Sa RN4220 lethal	BJeLR viability
COCCCn1c(C(=O)NC2CCCCC2C)cc2c(=O)n3cccc(C)c3nc21 (stereo not drawn)	-14.2	4235	7.9	2.9	0.6	7.8	-9.6
CCC1CCCCN1CCCNC(=O)CN1C(=O)c2cccnc2Oc2ccc(Cl)cc21 (stereo not drawn)	-5.6	5906	-2.6	3.8	-4.4	-1.2	7.0
NC(=O)NN=Cc1coc2ccc3ccccc3c2c1=O	.	.	4.8	1.2	-2.4	-2.2	.
COc1ccc(CNC(=O)C(C)C2C[C@@]2(C)C(NC(=O)OCc2ccccc2)c2ccccc2)cc1OC (stereo partly drawn)	.	.	7.2	9.4	0.3	-8.2	.
CCCC(=O)C1=C(SCC)CC(C)(C)C(C(=O)OC)C1=O (stereo not drawn)	34.6	2339	.	.	0.1	2.8	0.5
Cc1ccc(S(=O)(=O)c2cc3c(=O)n4cccc(C)c4nc3n(C3CCCCC3)c2=N)cc1	-11.2	3949	-1.1	-0.8	1.2	1.1	1.5
CCNC(=O)OCc1cn(-c2ccccc2)nn1	-17.3	2923	2.5	-5.2	1.2	1.7	-2.2
Cc1ccccc1-c1nn2c(-c3ccccc3)nnc2s1	-21.8	2490	18.0	4.7	-20.9	7.6	-6.7
Cc1cc(C)c(C)c(S(=O)(=O)NC2CCN(Cc3ccccc3)CC2)c1C	11.1	4620	16.5	11.2	8.9	4.3	3.5
CCCNC(=O)c1ccccc1NC(=O)c1ccccc1N(C)S(C)(=O)=O	-18.2	4231	.	.	6.0	0.6	-3.3
Cc1ccc(NC(=O)COC(=O)c2oc3ccccc3c2C)cc1S(=O)(=O)N1CCOCC1	-2.8	5415	5.6	-0.5	3.7	-0.5	.
CCOC(=O)C1CCN(C(=O)CSc2nnc(-c3ccco3)n2-c2ccccc2)CC1	1.9	2757	.	.	-1.6	0.5	-3.7
Cc1cc(=O)oc2c3c(cc(OCC(=O)NCc4cccnc4)c12)OC(C)(C)CC3	-0.3	6064	.	.	-7.4	9.8	8.1
COc1ccc(NC(=O)CN(C)C2CCCCC2)c([N+](=O)[O-])c1	-11.1	2440	-0.6	9.6	-3.4	1.5	-26.3
CN(C)S(=O)(=O)c1ccc(N2CCCC2)c(C(=O)Nc2nc3ccc(F)cc3s2)c1	-24.3	8029	-0.4	5.2	-10.1	-6.2	4.0
O=C(OCC(=O)c1ccc[nH]1)c1ccc(S(=O)(=O)N2CCCCC2)cc1	.	.	1.1	10.4	-2.2	-2.9	0.4
CN(Cc1cnn(C)c1)Cc1nc(COc2ccccc2)no1	-33.9	5042	5.4	16.0	-2.3	3.6	3.1
Cc1nnc(SCC(=O)c2cc(C)n(C3CC3)c2C)s1	-75.9	3355	-7.2	4.1	-9.3	-1.3	-0.9
CN(C)CCCNc1nc(-c2ccc(Cl)cc2)nc2ccccc12	-6.6	3772	9.6	12.4	-10.3	-10.4	-2.1
O=C(COc1ccccc1Br)NCc1ccco1	3.1	16469*	-1.1	-4.5	0.6	2.2	2.6
CCCCNC(=O)N(CC)c1c(N)n(Cc2ccccc2)c(=O)[nH]c1=O	-6.3	4284	7.5	1.1	3.7	8.2	1.4
O=C(Nc1cnccn1)c1csc2ccccc12	-16.5	11074	8.8	6.8	-12.8	7.5	7.4
C=CCn1c(SCC(=O)c2cccs2)nnc1-c1cccc(OC)c1	-19.4	10365	4.6	1.8	-7.3	5.3	6.9
Cc1nnsc1C(=O)N(Cc1ccccc1)C(C)C	-28.0	3727	5.2	2.1	1.3	2.0	18.3
CCCCn1c(N)c(N(CC(C)C)C(=O)C2CCN(S(=O)(=O)c3ccccc3)CC2)c(=O)[nH]c1=O	-12.0	5997	-11.6	-3.4	-0.3	2.5	1.1
More records:
SMILES	PrP UTR inh	Bead autofluor	Mtb hypoxia rep	Mtb hypoxia rep growth	Sa ugtP lethal	Sa RN4220 lethal	BJeLR viability
CC[C@@H](C)[C@H](NC(=O)CNC(=O)Cc1c(C)c2c(cc(C)c3c(C)coc32)oc1=O)C(=O)O	9.5	3005	8.0	-2.3	2.3	2.8	10.0
CC(/C=C\c1cccnc1)=C/C(=O)O	-34.4&-17.0	?	.	.	-2.1	1.7	0.5&3.1
COc1cc(OC)cc(C(=O)NCc2ccc3[nH]c(C)cc3c2)c1	-12.9	2898	-9.2	6.8	-7.3	-0.4	1.7
Cc1nc([N+](=O)[O-])cn1CC(=O)c1ccc(F)cc1	-34.5	3636	11.9	8.5	22.2	-1.9	-0.8
Cc1ccnc(NC(=O)CS(=O)(=O)Cc2ccccc2)c1	-8.4	3279	5.3	3.8	6.1	4.7	5.8
O=C(NCCCc1ccccc1)c1cccc(S(=O)(=O)N2CCOCC2)c1	-10.5	3739	15.9	4.8	6.9	8.0	.
COc1cc(/C=N/N=C2/NC(=O)C(Cc3ccc(F)cc3)S2)ccc1O (stereo not drawn)	-8.9	4527	.	.	.	.	-2.5
O=C(Nc1ccc(C(=O)O)cc1)/C(=C\c1ccc2c(c1)OCO2)NC(=O)c1ccc(Br)cc1	-15.6	3445	.	.	.	.	11.0
CC1CCN(C(=O)c2nc[nH]c2C(=O)N2CCC(C)CC2)CC1	-20.3	4101	6.6	13.0	4.3	3.3	.
CC(C)CCc1noc(CN2CCC(C(=O)N3CCOCC3)CC2)n1	-14.7	4530	-4.3	-1.7	2.3	1.7	21.2
O=C(CN1C(=O)c2ccccc2S1(=O)=O)Nc1cccc(S(=O)(=O)N2CCOCC2)c1	-21.4	3535	10.6	12.6	2.9	4.3	.
Cc1ccc(-c2n[nH]c(=O)c3ccccc23)cc1S(=O)(=O)N(C)C	-7.7	3652	-8.0	6.0	1.7	4.7	-13.8
COc1ccccc1Cc1nnc(NC(=O)C2CCN(C(=O)c3ccco3)CC2)s1	-7.5	4557	11.3	4.6	4.0	0.7	6.2
CCOc1ccc(Br)cc1C(=O)NN=Cc1cccc(C)n1	.	.	0.2	-11.3	4.1	-0.9	.
COc1ccc(/C=C2/N=C3CCCCCN3C2=O)cc1OC	-15.6	8602	-4.4	2.7	3.7	2.3	5.5
CCCCCn1c(=O)c(C(=O)Nc2ccccn2)c(O)c2ccccc21	6.6	3791	12.2	10.9	100.3*	100.1*	-14.6
O=C(N/C(=C\c1ccccc1)C(=O)N1CCCCCC1)c1ccccc1	-19.9	3372	13.9	4.9	4.3	-0.1	3.7
Cc1ccc(S(=O)(=O)c2c(N)n(Cc3ccco3)c3nc4ccccc4nc23)cc1C	-3.1	?	-10.0	1.7	-2.5	-2.6	-5.4
CCNC(=S)N/N=C/c1cc(C)ccc1C	-9.1	2533	.	.	.	.	-4.9
COc1ccc(NC(=O)C(C)N2C(=O)C3CC=C(Cl)CC3C2=O)cc1 (stereo not drawn)	-11.6	5513	-10.6	-2.6	2.8	3.0	3.5
CCN1C(=O)[C@H]2[C@@H](c3ccc(-c4cccc(Cl)c4)c(OC)c3)N[C@@](CC(C)C)(C(=O)OC)[C@H]2C1=O	-9.8	4213	.	.	.	.	10.4
O=C(Nc1ccc(Nc2ccncc2)cc1)c1ccc(Nc2ccnc3ccc([N+](=O)[O-])cc23)cc1[N+](=O)[O-]	10.3	3649	11.0	1.6	-2.9	-2.2	18.1
O=C(O)CC[N+](=O)[O-]	-8.8	4630	-2.9	-8.0	0.6	4.6	-6.1
O=S(=O)(c1ccc(F)cc1)N1CCCCC1c1cccnc1 (stereo not drawn)	-0.3	4266	-2.2	2.0	3.1	-0.4	-1.7
CCOC(=O)/C(C#N)=C/Nc1ccccc1OC	-57.5	3084	-8.8	6.1	-3.4	2.6	1.5

Random excerpt: two entries already listed.
SMILES	PrP UTR inh	Bead autofluor	Mtb hypoxia rep	Mtb hypoxia rep growth	Sa ugtP lethal	Sa RN4220 lethal	BJeLR viability
COCCCn1c(C(=O)NC2CCCCC2C)cc2c(=O)n3cccc(C)c3nc21 (stereo not drawn)	-14.2	4235	7.9	2.9	0.6	7.8	-9.6
O=C(N/C(=C\c1ccccc1)C(=O)N1CCCCCC1)c1ccccc1	-19.9	3372	13.9	4.9	4.3	-0.1	3.7

Other structures follow:
SMILES	PrP UTR inh	Bead autofluor	Mtb hypoxia rep	Mtb hypoxia rep growth	Sa ugtP lethal	Sa RN4220 lethal	BJeLR viability
Cc1ccc(C)c(N(C(=O)c2csnn2)C(C(=O)NC2CCCCC2)c2ccccn2)c1 (stereo not drawn)	-36.6	5246	7.7	4.8	2.7	-0.2	-15.3
CCOC(=O)c1csc(N)n1	-18.8	2733	6.1	3.0	2.5	0.7	-4.8
COc1ccc(-c2csc(NC(=O)C3=NN(c4ccccc4)C(=O)CC3)n2)cc1	-26.5	4547	-6.7	-4.4	-15.7	0.7	10.6
Cc1cc(NC(=O)COC(=O)C2CC(=O)N(c3ccc(Cl)cc3)C2)no1 (stereo not drawn)	-13.8	4015	6.4	2.6	-0.9	-0.7	6.6
CCN(CC)C(=O)N1CCN(C)CC1	-20.9	5493	-2.0	4.5	1.1	5.0	-2.9
Cc1nc2ccc(NC(=O)CS(=O)(=O)c3ccccc3)cc2s1	-37.9	6255	4.9	1.5	4.9	1.1	7.5
Cc1cc(C)n2nc(-c3ccc(F)cc3)nc2n1	-88.6	2451	13.5	4.6	0.5	11.1	8.8
O=C1CC(c2cccc([N+](=O)[O-])c2)c2c(ccc3ccccc23)N1 (stereo not drawn)	-17.2	3070	.	.	3.0	1.4	8.9
Cc1ccc(OCc2nc(-c3ccc(Cl)cc3)n[nH]2)cc1	-47.2	19787*	-0.1	-4.0	-9.5	1.7	11.0
Cc1cc(C)cc(OCC(=O)NN=Cc2cn(C)nc2C)c1	.	.	5.9	1.5	8.6	3.5	.
Cc1cccc(N2CC(C(=O)Nc3nnc(SCCN4CCOCC4)s3)CC2=O)c1 (stereo not drawn)	-13.2	6346	4.3	-0.1	-4.5	5.5	8.8
CCN(CC(=O)NCc1ccc(Cl)cc1)C(=O)c1cccc(S(=O)(=O)Nc2ccc(OC)cc2)c1	-8.5	?	5.2	-2.5	4.9	0.8	7.9
N#CC1(NC(=O)CSc2nnc(Cc3ccccc3)o2)CCCCC1	-19.2	?	4.8	2.8	6.7	3.1	.
CC(=O)Nc1ccc(NC(=O)C(C)Sc2n[nH]c(=O)n2Cc2ccccc2)cc1 (stereo not drawn)	-10.9	5551	7.9	-7.3	3.1	1.9	-1.0
COc1ccc(CCNC(=O)C(=O)N2CCCC2)cc1OC	-22.2	4162	5.3	-13.7	-0.6	2.8	2.7
COc1ccccc1OCCC(=O)N1CCN(c2ccccc2OC)CC1	-14.7	4601	15.2	9.2	-0.9	0.7	-7.3
Cc1csc2ncnc(NNC(=O)c3ccc(Cl)cc3)c12	-12.3	5372	7.1	11.9	-1.3	-0.5	8.8
COc1ccc(C(=O)NC2c3ccccc3-c3ccccc32)cc1	-29.8	2734	3.0	-8.8	3.7	4.0	-7.9

Grouped by structure, those above containing an NH in an aromatic ring (8)
SMILES	PrP UTR inh	Bead autofluor	Mtb hypoxia rep	Mtb hypoxia rep growth	Sa ugtP lethal	Sa RN4220 lethal	BJeLR viability
O=C(OCC(=O)c1ccc[nH]1)c1ccc(S(=O)(=O)N2CCCCC2)cc1	.	.	1.1	10.4	-2.2	-2.9	0.4
CCCCNC(=O)N(CC)c1c(N)n(Cc2ccccc2)c(=O)[nH]c1=O	-6.3	4284	7.5	1.1	3.7	8.2	1.4
CCCCn1c(N)c(N(CC(C)C)C(=O)C2CCN(S(=O)(=O)c3ccccc3)CC2)c(=O)[nH]c1=O	-12.0	5997	-11.6	-3.4	-0.3	2.5	1.1
COc1cc(OC)cc(C(=O)NCc2ccc3[nH]c(C)cc3c2)c1	-12.9	2898	-9.2	6.8	-7.3	-0.4	1.7
CC1CCN(C(=O)c2nc[nH]c2C(=O)N2CCC(C)CC2)CC1	-20.3	4101	6.6	13.0	4.3	3.3	.
Cc1ccc(-c2n[nH]c(=O)c3ccccc23)cc1S(=O)(=O)N(C)C	-7.7	3652	-8.0	6.0	1.7	4.7	-13.8
Cc1ccc(OCc2nc(-c3ccc(Cl)cc3)n[nH]2)cc1	-47.2	19787*	-0.1	-4.0	-9.5	1.7	11.0
CC(=O)Nc1ccc(NC(=O)C(C)Sc2n[nH]c(=O)n2Cc2ccccc2)cc1 (stereo not drawn)	-10.9	5551	7.9	-7.3	3.1	1.9	-1.0

Compound activity from PubChem.
